Source: PubChem BioAssay
UUG fidelity: modulators of yeast start codon fidelity, primary screen, whole organism, S. cerevisiae, single point, plate reader; S. cerevisiae UUG-firefly luciferase reporter, luminescence/redox ratio; activity score, % at 18.7 µM; hit rate 0.13% among 350,000; AID 602363, 2012;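 active means replicate mean at a twofold rise or more, about +100% in these data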;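 further: firefly luciferase made from a UUG start codon reports start codon fidelity; reporter light over untreated wells divided by growth signal over untreated wells; some hits fall short of that in this replicate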
Numbers without * were called inactive. Not all compounds are listed. The share of hits here may be higher or lower than overall.

SMILES | UUG fidelity
CO[C@H]1CN(C)C(=O)c2cc(NC(=O)C3CC3)ccc2OC[C@H](C)N(CC2CCOCC2)C[C@@H]1C | -1.6
O=C(C[C@H]1CC[C@@H]2[C@H](COC[C@@H](O)CN2C(=O)Cc2ccccc2)O1)NC1CCC1 | -4.0
COc1ccc(S(=O)(=O)N(C)C[C@@H]2Oc3ccc(NS(=O)(=O)c4ccc(Cl)cc4)cc3C(=O)N([C@@H](C)CO)C[C@H]2C)cc1 | 8.1
CO[C@@H]1CN(C)C(=O)c2ccc(NS(C)(=O)=O)cc2OC[C@H](C)N(C(=O)CC2CC2)C[C@@H]1C | -8.2
CCN(C[C@H]1[C@H](c2ccc(C3=CCCCC3)cc2)[C@H](CO)N1CC1CC1)C(C)=O | -6.8
COc1ccccc1C(=O)N1C[C@H]2[C@@H](c3ccccc31)[C@H](CO)N2C(=O)C1CCCCC1 | 12.1
O=C(C1CCC1)N1CCCCN2[C@H](C1)[C@@H](c1ccc(-c3cccc(F)c3)cc1)[C@@H]2CO | -1.9
Cc1ccc(-c2ccc3c(c2)O[C@@H](CN(C)Cc2ccc(F)cc2)[C@@H](C)CN([C@@H](C)CO)S3(=O)=O)cc1 | 20.7
CCC(=O)N1[C@H](CN(CC)C(=O)c2cccc(F)c2)[C@@H](c2ccccc2)[C@@H]1CO | 7.8
CC(=O)N1C[C@@H]2[C@H](c3ccccc31)[C@H](CO)N2C(=O)CC1CC1 | 2.7
CN1C(=O)c2cc(NC(=O)c3cccs3)ccc2OC[C@H]2O[C@H](CC(=O)O)CC[C@H]21 | -3.0
O=C(c1ccc(F)cc1)N1CCCCN2[C@H](CO)[C@@H](c3ccc(-c4ccc(F)cc4)cc3)[C@@H]2C1 | -6.2
O=C(C[C@H]1CC[C@H]2[C@@H](COC[C@@H](O)CN2S(=O)(=O)c2cccc(Cl)c2)O1)NCc1ccncn1 | -7.0
COc1ccc(CN(C)C[C@@H]2OCc3cnnn3CCCC(=O)N([C@H](C)CO)C[C@@H]2C)cc1 | -9.4
COc1ccc(NC(=O)Nc2ccc3c(c2)CC(=O)N([C@@H](C)CO)C[C@@H](C)[C@H](CN(C)C(=O)Nc2ccc(F)cc2)O3)cc1 | -1.0
CO[C@@H]1CN(C)C(=O)c2cc(NS(=O)(=O)CC(F)(F)F)ccc2OC[C@@H](C)N(Cc2cccnc2)C[C@@H]1C | -4.6
Cc1noc(C)c1NC(=O)Nc1ccc2c(c1)C(=O)N([C@@H](C)CO)C[C@H](C)[C@H](CN(C)S(=O)(=O)c1cn(C)cn1)O2 | -5.4
O=C(c1ccccn1)N1CC[C@@H]2[C@H]1c1cc(-c3ccc(F)cc3)ccc1N[C@@H]2CO | 5.7
O=C(Nc1cccc(F)c1)N1C[C@@H]2[C@H](c3ccccc31)[C@@H](CO)N2C(=O)c1cccnc1 | -15.8
C[C@H](CO)N1C[C@H](C)[C@H](CN(C)Cc2ccc(Cl)c(Cl)c2)Oc2c(NS(=O)(=O)c3ccc(F)cc3)cccc2C1=O | 3.5
C[C@@H]1CN([C@H](C)CO)C(=O)c2cccc(NS(=O)(=O)c3cn(C)cn3)c2O[C@@H]1CN(C)S(=O)(=O)c1ccc(F)cc1 | -17.9
C[C@H]1CN([C@@H](C)CO)C(=O)c2cc(NC(=O)NC3CCCCC3)ccc2O[C@H]1CN(C)S(C)(=O)=O | -7.2
CCNC(=O)C[C@@H]1CC[C@H]2[C@@H](COC[C@H](O)CN2C(=O)CC)O1 | -7.9
CO[C@H]1CN(C)C(=O)c2cc(NC(=O)C3CC3)ccc2OC[C@@H](C)N(Cc2cc(F)ccc2F)C[C@H]1C | 2.2
O=C(c1cccnc1)N1CCCCN2[C@@H](CO)[C@@H](c3ccc(C#Cc4ccccc4)cc3)[C@@H]2C1 | -9.2

2 of these compounds, reformatted:
> CO[C@H]1CN(C)C(=O)c2cc(NC(=O)C3CC3)ccc2OC[C@@H](C)N(Cc2cc(F)ccc2F)C[C@H]1C
  UUG fidelity: 2.2
> O=C(C1CCC1)N1CCCCN2[C@H](C1)[C@@H](c1ccc(-c3cccc(F)c3)cc1)[C@@H]2CO
  UUG fidelity: -1.9

Among those listed so far, these have two or more sulfur atoms.
SMILES | UUG fidelity
COc1ccc(S(=O)(=O)N(C)C[C@@H]2Oc3ccc(NS(=O)(=O)c4ccc(Cl)cc4)cc3C(=O)N([C@@H](C)CO)C[C@H]2C)cc1 | 8.1
C[C@@H]1CN([C@H](C)CO)C(=O)c2cccc(NS(=O)(=O)c3cn(C)cn3)c2O[C@@H]1CN(C)S(=O)(=O)c1ccc(F)cc1 | -17.9

Next part.
SMILES | UUG fidelity
O=C(c1cccnc1)N1C[C@H]2[C@@H](c3ccccc31)[C@H](CO)N2C(=O)Nc1ccccc1F | -2.8
COc1cccc(S(=O)(=O)N2CCCCN3[C@H](C2)[C@H](c2ccc(-c4ccccc4)cc2)[C@@H]3CO)c1 | 5.8
Cc1ccccc1-c1ccc([C@@H]2[C@@H](CO)N3CCCCN(CC4CC4)C[C@H]23)cc1 | 2.3
Cc1ccc(S(=O)(=O)Nc2cccc3c2O[C@H](CN(C)CC2CCCCC2)[C@H](C)CN([C@H](C)CO)C3=O)cc1 | 6.4
Cc1noc(C)c1NC(=O)N(C)C[C@@H]1Oc2c(NC(=O)Nc3cccc4ccccc34)cccc2C(=O)N([C@H](C)CO)C[C@H]1C | 2.1
CN1CCN(C(=O)C[C@H]2C[C@@H]3c4cc(NC(=O)Nc5ccc(F)cc5)ccc4O[C@@H]3[C@H](CO)O2)CC1 | 10.4
C[C@@H]1CN([C@H](C)CO)C(=O)c2cccc(NC(=O)c3nc4ccccc4s3)c2O[C@@H]1CN(C)S(=O)(=O)c1cn(C)cn1 | -4.8
COc1ccc(NC(=O)Nc2ccc3c(c2)[C@H]2C[C@@H](CC(=O)N4CCCCC4)O[C@H](CO)[C@H]2O3)cc1 | 4.6
Cc1ccccc1S(=O)(=O)N1C[C@@H](O)COC[C@@H]2O[C@H](CC(=O)N3CCOCC3)CC[C@H]21 | -7.0
CC(=O)N1[C@@H](CO)[C@@H]2c3ccccc3N(S(=O)(=O)c3ccc(F)cc3)C[C@@H]21 | -6.5
CO[C@H]1CN(C)C(=O)c2ccc(NS(C)(=O)=O)cc2OC[C@@H](C)N(CC2CC2)C[C@@H]1C | -12.1
COc1ccc(C(=O)Nc2ccc3c(c2)OC[C@H](C)N(C(C)=O)C[C@H](C)[C@H](OC)CN(C)C3=O)cc1 | 9.2
C[C@@H]1CN([C@H](C)CO)C(=O)c2cccc(NC(=O)Nc3ccc(C(F)(F)F)cc3)c2O[C@@H]1CN(C)S(C)(=O)=O | 5.3
CCCNC(=O)Nc1ccc2c(c1)OC[C@H](C)N(Cc1cncnc1)C[C@H](C)[C@H](OC)CN(C)C2=O | -4.2
CO[C@H]1CN(C)C(=O)c2cc(NC(C)=O)ccc2OC[C@H](C)N(Cc2ccccn2)C[C@@H]1C | -12.8
COc1cccc(C(=O)Nc2ccc3c(c2)OC[C@H](C)N(C(=O)C2CCCC2)C[C@H](C)[C@H](OC)CN(C)C3=O)c1 | 7.2
O=S(=O)(c1ccccc1)N1C[C@@H]2[C@H](c3ccccc31)[C@H](CO)N2Cc1ccccc1 | -2.9
O=C(C[C@H]1CC[C@@H]2[C@H](COC[C@@H](O)CN2Cc2ccncc2)O1)NCC1CC1 | -7.1
COc1ccc(NC(=O)Nc2ccc3c(c2)C(=O)N([C@@H](C)CO)C[C@H](C)[C@H](CN(C)Cc2ccc(Cl)c(Cl)c2)O3)cc1 | 0.1
CO[C@H]1CN(C)C(=O)c2cc(NC(=O)NC(C)C)ccc2OC[C@H](C)N(Cc2ccc(-c3ccccn3)cc2)C[C@H]1C | 3.3
CO[C@H]1CN(C)C(=O)c2ccc(NC(=O)Nc3cccc(F)c3)cc2OC[C@H](C)N(C(=O)Nc2c(C)noc2C)C[C@H]1C | -6.2
Cc1ccc(-c2ccc([C@@H]3[C@H](CO)N4CCCCN(Cc5cncnc5)C[C@@H]34)cc2)cc1 | -8.7
C[C@H]1CN([C@@H](C)CO)C(=O)c2cc(NC(=O)NC3CCCCC3)ccc2O[C@@H]1CN(C)Cc1ccc(C(F)(F)F)cc1 | -1.4
CC(=O)N1C[C@H]2[C@@H](c3ccccc31)[C@@H](CO)N2C(=O)Nc1ccc(F)cc1 | -8.7
CCC(=O)Nc1ccc2c(c1)C(=O)N(C)C[C@@H](OC)[C@@H](C)CN(CC1CC1)[C@@H](C)CO2 | -8.1
Additional results
SMILES | UUG fidelity
CCCNC(=O)Nc1ccc2c(c1)C(=O)N(C)C[C@@H](OC)[C@@H](C)CN(Cc1cccnc1)[C@@H](C)CO2 | 0.9
Cn1cnc(S(=O)(=O)N2CC[C@@H]3[C@@H](CO)Nc4ccc(-c5ccccc5)cc4[C@@H]32)c1 | 4.6
O=C(c1ccccc1F)N1CC[C@@H]2[C@H](CO)Nc3ccc(C#Cc4ccccc4)cc3[C@@H]21 | -16.2
CN1CCCCN2[C@H](CO)[C@@H](c3ccc(C#CC4(O)CCCC4)cc3)[C@H]2C1 | 4.6
CC(=O)N1CC[C@@H]2[C@H](CO)Nc3ccc(-c4ccc(F)cc4)cc3[C@@H]21 | -12.5
COc1ccccc1NC(=O)N1CCCCN2[C@H](CO)[C@H](c3ccc(-c4cccc(C)c4)cc3)[C@H]2C1 | 9.6
O=C(C[C@@H]1CC[C@H]2[C@@H](COC[C@H](O)CN2S(=O)(=O)c2ccc(F)cc2)O1)NCc1ccc(Cl)c(Cl)c1 | 11.7
CC(=O)NC[C@@H]1[C@@H](c2ccccc2)[C@@H](CO)N1C(=O)Cc1ccncc1 | 9.0
CCCNC(=O)C[C@H]1CC[C@@H]2[C@H](COc3ccc(NC(=O)c4cccs4)cc3C(=O)N2C)O1 | -3.5
CCN1[C@@H]2Cn3c(ccc(C4=CCCCC4)c3=O)[C@H]1[C@@H](C(=O)NCCc1ccncc1)[C@@H]2CO | 5.7
O=C(C[C@@H]1C[C@@H]2c3cc(NS(=O)(=O)c4ccc(F)cc4)ccc3O[C@@H]2[C@H](CO)O1)NCc1cc(F)ccc1F | -12.6
C[C@@H]1CN([C@@H](C)CO)C(=O)c2cc(NS(=O)(=O)c3ccc(Cl)cc3)ccc2O[C@@H]1CN(C)C(=O)Nc1ccc(F)cc1 | 5.7
CO[C@@H]1CN(C)C(=O)c2cc(NC(=O)C3CC3)ccc2OC[C@H](C)N(Cc2cccc(F)c2)C[C@@H]1C | -15.1
CCN(C[C@@H]1[C@@H](c2ccccc2)[C@@H](CO)N1S(C)(=O)=O)C(=O)C1CC1 | 2.4
COc1ccc(S(=O)(=O)Nc2ccc3c(c2)OC[C@@H](C)N(Cc2cc(F)ccc2F)C[C@@H](C)[C@H](OC)CN(C)C3=O)cc1 | 5.3
COCC(=O)N1[C@@H](CO)[C@@H]2c3ccccc3N(C(=O)Nc3cc(F)ccc3F)C[C@@H]21 | -5.8
CO[C@H]1CN(C)C(=O)c2ccc(NC(=O)Cc3ccccc3)cc2OC[C@@H](C)N(C(C)=O)C[C@@H]1C | 7.7
CCCNC(=O)Nc1ccc2c(c1)C(=O)N(C)C[C@@H](OC)[C@H](C)CN(C(=O)C1CCC1)[C@H](C)CO2 | -6.6
CCC(=O)Nc1ccc2c(c1)C(=O)N(C)C[C@H](OC)[C@@H](C)CN(C(=O)NC(C)C)[C@@H](C)CO2 | -13.4
COc1ccccc1-c1ccc([C@H]2[C@@H](CO)N3CCCCN(C(=O)NC4CCCC4)C[C@H]23)cc1 | 6.1
C[C@@H]1CN([C@H](C)CO)C(=O)c2cc(NS(=O)(=O)c3cccs3)ccc2O[C@H]1CN(C)C(=O)NC1CCCCC1 | 5.9
C[C@H]1CN([C@@H](C)CO)C(=O)c2cc(NC(=O)CCN3CCOCC3)ccc2O[C@H]1CN(C)S(=O)(=O)c1cn(C)cn1 | -10.1
COc1ccc(-c2ccc3c(c2)[C@@H]2[C@@H](CCN2C(=O)Cc2cccnc2)[C@@H](CO)N3C)cc1 | -0.6
Cc1ccc(-c2ccc([C@@H]3[C@H](CO)N4CCCCN(S(=O)(=O)c5cccc(C)c5)C[C@@H]34)cc2)cc1 | -12.3
O=C(CN1CCOCC1)N1CCCCN2[C@H](CO)[C@@H](c3ccc(-c4ccccc4F)cc3)[C@@H]2C1 | -10.7
(list continues)
SMILES | UUG fidelity
C[C@@H]1CN([C@H](C)CO)C(=O)c2cc(NS(=O)(=O)c3cn(C)cn3)ccc2O[C@H]1CN(C)Cc1ccncc1 | -16.5
C[C@@H]1CN([C@H](C)CO)C(=O)c2cc(NC(=O)Cc3cn(C)c4ccccc34)ccc2O[C@H]1CN(C)S(=O)(=O)c1cccs1 | -6.8
COc1ccc(NC(=O)Nc2ccc3c(c2)C(=O)N([C@H](C)CO)C[C@@H](C)[C@@H](CN(C)Cc2ccc(-c4ccccc4)cc2)O3)cc1 | 9.2
C[C@@H]1CN([C@@H](C)CO)C(=O)c2cccc(NS(C)(=O)=O)c2O[C@@H]1CN(C)Cc1ccc(C(=O)O)cc1 | -4.2
C[C@H]1CN([C@@H](C)CO)C(=O)c2cc(NS(=O)(=O)c3cn(C)cn3)ccc2O[C@@H]1CN(C)Cc1ccc2c(c1)OCO2 | -11.2
O=S(=O)(Cc1ccccc1)N1CCCCN2[C@H](CO)[C@@H](c3ccc(-c4cncnc4)cc3)[C@@H]2C1 | 9.2
COc1ccc(NC(=O)N(C)C[C@@H]2Oc3ccc(NC(=O)CCCN(C)C)cc3C(=O)N([C@H](C)CO)C[C@@H]2C)cc1 | 8.3
CN(C)C(=O)c1ccc(-c2ccc3c(c2)[C@@H]2[C@@H](CCN2C(=O)c2ccc(F)cc2)[C@H](CO)N3C)cc1 | 4.2
O=C(c1ccccn1)N1CC[C@@H]2[C@@H](CO)Nc3ccc(-c4cccc(F)c4)cc3[C@@H]21 | 8.7

Retrieved one by one from the list above:
SMILES | UUG fidelity
O=S(=O)(Cc1ccccc1)N1CCCCN2[C@H](CO)[C@@H](c3ccc(-c4cncnc4)cc3)[C@@H]2C1 | 9.2
COc1ccc(NC(=O)N(C)C[C@@H]2Oc3ccc(NC(=O)CCCN(C)C)cc3C(=O)N([C@H](C)CO)C[C@@H]2C)cc1 | 8.3
